YjeE inh = inhibitors of E. coli YjeE (TsaE); AID 605; purified YjeE, fluorescence polarisation of a bound ADP probe; hit rate 0.05% among 71,000; P0AF67; Potency, µM; active = well fitted falling curve; inconclusive = weaker or top-dose-only fall, or a rising curve; inactive = flat or poorly fitted curve;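 also: top concentration of the series not given in the record; excess ADP was the control for the full effect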
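Purified YjeE (10 uM) with BODIPY Texas Red-labeled ADP probe (2 uM); compounds pin-transferred, 15 min at room temperature. Binding inhibition read as decreased fluorescence polarization; ADP titration as control.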
PK Bst = alters activity of Bacillus stearothermophilus pyruvate kinase | partly purified Bacillus stearothermophilus pyruvate kinase, luminescence ATP production; ribose 5-phosphate activator present at AC10 | Potency, µM | hit rate 1.2% among 51,000 | AID 361; in the data active means potency below about 11 µM; inconclusive means mostly about 12 µM to 25 µM; inactive means weaker than that;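 the screen sought inhibitors and activators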;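 also: potency is read from the fitted curve at half-maximal effect; scaled between full activation by ribose 5 phosphate and full inhibition by luteolin; about four in five hits inhibit and the cells do not say which; series up to 57 µM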
Active calls of the source: *; & = joins results of further samples. The list is partial, so the mix of outcomes need not match the whole.

Preview:
How did Fc1ccccc1OCCCN1CCOCC1 do in these assays?
YjeE inh: inactive; PK Bst: >57

Results for Cc1cccc(CNc2cc(-c3ccoc3)ncn2)c1 ?
YjeE inh: inactive

How did COCCSc1ccccc1C(=O)Nc1nnc(COC)s1 do in these assays?
YjeE inh: inactive; PK Bst: >57

What do the screens show for `CCN(CC)CP(=O)(c1ccccc1)c1ccccc1`?
YjeE inh: inactive

What do the screens show for `CCCOc1ccc(-c2nnc(-c3ccncc3)o2)cc1`?
YjeE inh: inactive; PK Bst: 1.57*

Results for O=S(=O)(Nc1cccnc1)c1cccc(C(F)(F)F)c1 ?
YjeE inh: inactive; PK Bst: >57

Results, repeating the preview:
How did Fc1ccccc1OCCCN1CCOCC1 do in these assays?
YjeE inh: inactive; PK Bst: >57

Results for Cc1cccc(CNc2cc(-c3ccoc3)ncn2)c1 ?
YjeE inh: inactive

How did COCCSc1ccccc1C(=O)Nc1nnc(COC)s1 do in these assays?
YjeE inh: inactive; PK Bst: >57

What do the screens show for `CCN(CC)CP(=O)(c1ccccc1)c1ccccc1`?
YjeE inh: inactive

What do the screens show for `CCCOc1ccc(-c2nnc(-c3ccncc3)o2)cc1`?
YjeE inh: inactive; PK Bst: 1.57*

Results for O=S(=O)(Nc1cccnc1)c1cccc(C(F)(F)F)c1 ?
YjeE inh: inactive; PK Bst: >57

Results for Cn1c(SC/C=C/c2ccccc2)nnc1-c1ccco1 ?
YjeE inh: inactive; PK Bst: >57

What do the screens show for `Cc1cc(C)cc(-n2ccnc2SCC(=O)Nc2ccc3c(c2)OCCO3)c1`?
YjeE inh: inactive; PK Bst: >57

Results for O=C(NCCCN1CCOCC1)c1cc(-c2ccc(F)cc2)on1 ?
YjeE inh: inactive; PK Bst: >57

How did CCOc1ccc(-c2nnc3ccc(SCc4ccc(C(=O)OC)o4)nn23)cc1 do in these assays?
YjeE inh: inactive

What do the screens show for `O=C(NC1CCCCC1)N1CCC(n2c(=O)[nH]c3ccccc32)CC1`?
YjeE inh: inactive

How did Cc1cc(NC(=O)CSc2nnc(Cn3c(=O)sc4ccccc43)n2-c2ccccc2C)no1 do in these assays?
YjeE inh: inactive

What do the screens show for `CCOC(=O)CCCCC(=O)c1[nH]c(=O)[nH]c1CN1CCOCC1`?
YjeE inh: inactive; PK Bst: >57

What do the screens show for `COCC(C)NS(=O)(=O)c1ccc(NC(=O)C(Cc2ccccc2)NC(N)=O)cc1` (stereo not drawn)?
YjeE inh: inactive; PK Bst: >57

Results for CCc1ccc(NC2CC(=O)N(c3ccc(OC)cc3OC)C2=O)cc1 (stereo not drawn) ?
YjeE inh: inactive; PK Bst: >57

Results for c1ccc(Cn2c(CSc3nnnn3-c3ccccc3)nc3ccccc32)cc1 ?
YjeE inh: inactive

How did COc1ccc(CCNC(=O)CCN2C(=O)COc3ccc(C)cc32)cc1OC do in these assays?
YjeE inh: inactive; PK Bst: >57

Results for CCc1ccccc1N1CC23C=CC(O2)C(C(=O)OCC(C)C)C3C1=O (stereo not drawn) ?
YjeE inh: inactive

What do the screens show for `O=C1CC(N2CCN(c3ccc(F)cc3)CC2)C(=O)N1Cc1cccs1` (stereo not drawn)?
YjeE inh: inactive; PK Bst: >57

What do the screens show for `COc1ccc(OC)c(/C=c2\sc3nc(-c4cccs4)nn3c2=O)c1`?
YjeE inh: inactive; PK Bst: >57

Results for CCC(=O)N1c2ccc(S(=O)(=O)CCC(=O)NC3CCCC3)cc2CC1C (stereo not drawn) ?
YjeE inh: inactive; PK Bst: >57

What do the screens show for `O=C(NCc1ccco1)c1cccn2c(=O)c3cc(Br)ccc3nc12`?
YjeE inh: inactive; PK Bst: inconclusive

What do the screens show for `c1ccc(OCCSc2nnnn2C2CCCCC2)cc1`?
YjeE inh: inactive

What do the screens show for `CCCCn1c(SCC(=O)OC)nc2c1c(=O)n(C)c(=O)n2C`?
YjeE inh: inactive; PK Bst: >57

Results for O=C(Nc1ccccc1)OC[C@H](CN1CCCCC1)OC(=O)Nc1ccccc1 ?
YjeE inh: inactive

Results for COc1ccccc1NC(=O)C1CCCN(S(=O)(=O)c2cnc[nH]2)C1 (stereo not drawn) ?
YjeE inh: inactive

Results for Cc1ccc(/C=c2\sc3n(c2=O)CN(c2ccc(Br)cc2)CN=3)o1 ?
PK Bst: >25.6

What do the screens show for `Cc1ccccc1-c1nc(N2CCN(C)CC2)c2ccccc2n1`?
YjeE inh: inactive

Results for C[C@]12CCC(=O)C=C1CC[C@@H]1[C@@H]2[C@@H](O)C[C@@]2(C)[C@H]1CC[C@]2(O)C(=O)COC(=O)CCC(=O)O ?
PK Bst: >11.4&>25.6

What do the screens show for `O=C(CNS(=O)(=O)c1cccc2nonc12)NCc1ccc(F)cc1`?
YjeE inh: inactive; PK Bst: >57

How did CCCN[C@@H](C)C(=O)Nc1ccccc1C do in these assays?
YjeE inh: inactive

What do the screens show for `COc1cc(CCC(=O)N2CCN(c3ccc(N4CCOCC4)nn3)CC2)cc(OC)c1OC`?
YjeE inh: inactive

Results for CCOc1ccc(-n2cnnn2)cc1S(=O)(=O)NCCc1ccc(OC)c(OC)c1 ?
YjeE inh: inactive; PK Bst: >57

Results for COC(=O)C1CCN(C(=O)c2sc3nc(-c4ccc(F)cc4)cn3c2C)CC1 ?
YjeE inh: inactive; PK Bst: >57

How did C/C=C1\C(=O)C[C@@H]2[C@@H]3CCC4=CC(=O)CC[C@@]4(C)[C@H]3CC[C@@]12C do in these assays?
YjeE inh: inactive

How did Cc1nc2ccccc2c2oc(C(=O)NCCCN3CCC(C)CC3)cc12 do in these assays?
YjeE inh: inactive

How did COc1ccccc1-c1ccc2ncnc(NCCN3CCOCC3)c2c1 do in these assays?
YjeE inh: inactive

How did Cc1onc(-c2ccccc2)c1C(=O)Nc1nnc(N(C)Cc2ccccc2)s1 do in these assays?
YjeE inh: inactive

How did Cn1c(=O)n(C)c2cc(NS(=O)(=O)c3ccc4c(c3)CCCC4)ccc21 do in these assays?
YjeE inh: inactive; PK Bst: >57

What do the screens show for `CC(C)(C)c1ccc(O)c(CN(Cc2cc(C(C)(C)C)ccc2O)C2CCCCC2)c1`?
YjeE inh: inactive

How did COC(=O)C(C)Sc1nnc(-c2ccncc2)o1 (stereo not drawn) do in these assays?
YjeE inh: inactive

What do the screens show for `CC(C)(C)Nc1nc(OCC(F)(F)F)nc(OCC(F)(F)F)n1`?
YjeE inh: inactive; PK Bst: >57

What do the screens show for `O=S(=O)(c1ccc(S(=O)(=O)N2CCN3CCCC3C2)cc1)N1CCCC1` (stereo not drawn)?
YjeE inh: inactive; PK Bst: >57

What do the screens show for `Cc1ccc(-c2nnc(CSc3nc4cc5c(cc4cc3C)OCO5)o2)cc1`?
YjeE inh: inactive; PK Bst: >57

How did COC(=O)c1ccc2c(c1)N(Cc1cc(C)ccc1C)C(=O)c1ccccc1S2=O (stereo not drawn) do in these assays?
YjeE inh: inactive

What do the screens show for `COc1cc(NC(=O)c2ccco2)c(OC)cc1NC(=O)Nc1ccccc1Cl`?
YjeE inh: inactive; PK Bst: >57

What do the screens show for `O=c1cnc2cnc(Oc3ccccc3)nc2n1Cc1cccs1`?
YjeE inh: inactive

What do the screens show for `O=C1N2CCSC2=NC1(Nc1nccs1)C(F)(F)F` (stereo not drawn)?
YjeE inh: inactive; PK Bst: >57

How did Cc1ccc(C(C(=O)NC(C)(C)C)N(C(=O)c2csnn2)c2ccccc2F)o1 (stereo not drawn) do in these assays?
YjeE inh: inactive; PK Bst: >57

What do the screens show for `O=C(COc1ccccc1O)N1CCN(C(=O)c2ccco2)CC1`?
YjeE inh: inactive; PK Bst: >57

How did O=C1C2C3C=CC(C3)C2C(=O)N1c1cccc(N2C(=O)C3C4C=CC(C4)C3C2=O)n1 (stereo not drawn) do in these assays?
YjeE inh: inactive

What do the screens show for `NS(=O)(=O)c1ccc(NC(=O)CSc2nnc(Cc3cccs3)n2-c2ccccc2)cc1`?
YjeE inh: inactive; PK Bst: >57

What do the screens show for `CN1CCN(CCCNC(=O)c2cn(C3CCCCC3)c(=O)c3c2c2ccccc2n3C)CC1`?
YjeE inh: inactive; PK Bst: >57

Results for CN(C(=O)COC(=O)c1ccccc1Nc1ccccc1)C1CCS(=O)(=O)C1 (stereo not drawn) ?
YjeE inh: inactive; PK Bst: >57

How did CC(=O)Nc1c(O)[nH]c2ccccc12 do in these assays?
YjeE inh: inactive; PK Bst: >57

What do the screens show for `OCCN(Cc1ccccc1)CC1CC=CCC1` (stereo not drawn)?
YjeE inh: inactive

How did O=S(=O)(Nc1ccc2c(c1)OCCO2)c1cnc[nH]1 do in these assays?
YjeE inh: inactive; PK Bst: >57

What do the screens show for `Cc1c(C)[n+](=O)c(-c2cccs2)c(C)n1[O-]`?
YjeE inh: inactive; PK Bst: >57

Results for COC(=O)c1ccc(CSc2nc3ccccc3c(=O)n2-c2ccc(OC)c(OC)c2)o1 ?
YjeE inh: inactive; PK Bst: >57

How did O=C(NCCCn1ccnc1)Nc1ccc(Cl)c(Cl)c1 do in these assays?
YjeE inh: inactive; PK Bst: >57

What do the screens show for `COc1ccc(NC(=O)C2CCC(=O)N2)cc1` (stereo not drawn)?
YjeE inh: inactive

How did CCOCCCNC(=O)c1c(C)[nH]c(C(=O)OCC)c1C do in these assays?
YjeE inh: inactive; PK Bst: >57

What do the screens show for `Cc1ccccc1-c1nccc(NCc2cccnc2)n1`?
YjeE inh: inactive

Results for COc1ccc(N(CC(=O)NC2CCCCCC2)S(=O)(=O)c2c(C)nn(C)c2C)cc1 ?
YjeE inh: inactive; PK Bst: >57

What do the screens show for `c1cc2c(cc1C1CCCN1)OCCCO2` (stereo not drawn)?
YjeE inh: inactive; PK Bst: >57

Results for CCCn1c(SCc2ccccn2)nc2c1c(=O)n(C)c(=O)n2C ?
YjeE inh: inactive; PK Bst: >57

Results for Brc1ccc2ncnc(Nc3ccc(N4CCOCC4)cc3)c2c1 ?
YjeE inh: inactive

What do the screens show for `N#Cc1ccc(OCCN2C(=O)NC3(CCSC3)C2=O)cc1` (stereo not drawn)?
YjeE inh: inactive; PK Bst: >57

What do the screens show for `CC1CCN(C(=O)CN2C(=O)c3ccccc3S2(=O)=O)CC1`?
YjeE inh: inactive; PK Bst: >57

Results for COc1ccc(C(=O)N2CCN(C(=O)c3ccco3)CC2)cc1 ?
YjeE inh: inactive

How did COc1cc(-c2noc(-c3ccco3)n2)cc(OC)c1OC do in these assays?
YjeE inh: inactive; PK Bst: >57

How did CCOc1ccc(C(C)=O)cc1CN1C(=O)NC2(CCCCC2C)C1=O (stereo not drawn) do in these assays?
YjeE inh: inactive; PK Bst: >57

Results for CCC(C(=O)N1CCOCC1)n1c(C(=O)OC)cc2occc21 (stereo not drawn) ?
YjeE inh: inactive; PK Bst: >57

How did CC1CCCC(NC(=O)COC(=O)c2ccc(S(=O)(=O)N3CCOCC3)cc2)C1C (stereo not drawn) do in these assays?
YjeE inh: inactive; PK Bst: >57

How did COC(=O)Nc1ccc(S(=O)(=O)N(C)CC(F)(F)C(F)F)cc1 do in these assays?
YjeE inh: inactive; PK Bst: >57

What do the screens show for `CCC(C)(c1ccc(C(=O)OC)s1)c1ccc(C(=O)OC)s1`?
YjeE inh: inactive

How did Cc1ccn2cc(CNS(=O)(=O)c3ccc(Cl)s3)nc2c1 do in these assays?
YjeE inh: inactive

Results for COc1cccc(-n2c(Cc3cc(=O)[nH]c(=O)[nH]3)nnc2SCC(=O)N2CCCCCC2)c1 ?
YjeE inh: inactive

Results for CCOc1ccccc1C(=O)N1CCN(c2cccc(Cl)c2)CC1 ?
YjeE inh: inactive; PK Bst: >57

Results for c1ccc(Cc2ccc(OCCn3cncn3)cc2)cc1 ?
YjeE inh: inactive; PK Bst: >57

Three structures from above, arranged by number of heavy atoms, ascending.
What do the screens show for `c1cc2c(cc1C1CCCN1)OCCCO2` (stereo not drawn)?
YjeE inh: inactive; PK Bst: >57

What do the screens show for `COc1ccc(OC)c(/C=c2\sc3nc(-c4cccs4)nn3c2=O)c1`?
YjeE inh: inactive; PK Bst: >57

How did Cc1cc(NC(=O)CSc2nnc(Cn3c(=O)sc4ccccc43)n2-c2ccccc2C)no1 do in these assays?
YjeE inh: inactive

Next section:
How did CC(=O)c1cn(CC(=O)NCc2ccc3c(c2)OCO3)c2ccccc12 do in these assays?
YjeE inh: inactive; PK Bst: >57

What do the screens show for `CC(C)Sc1nnc(Nc2ccccc2)s1`?
YjeE inh: inactive

What do the screens show for `CCN(CCNC(=O)C1CCN(c2nnc(-n3cccc3)s2)CC1)c1ccccc1`?
YjeE inh: inactive

How did CCOC(=O)C1(C)NC(c2ccccc2F)C2C(=O)N(c3cccc(C(C)=O)c3)C(=O)C21 (stereo not drawn) do in these assays?
YjeE inh: inactive; PK Bst: >57

Results for O=c1c(N2CCOCC2)nsn1Cc1ccccc1 ?
YjeE inh: inactive; PK Bst: >57

Results for CC(C)c1ccc(C(O)c2cnc(C(C)C)n2C)cc1 (stereo not drawn) ?
YjeE inh: inactive

Results for Cc1cc2cc(CCNC(=O)c3c(-c4ccccc4Cl)noc3C)c(=O)[nH]c2cc1C ?
YjeE inh: inactive

What do the screens show for `Cc1cc(C)n(S(=O)(=O)c2cccc(Cl)c2Cl)n1`?
YjeE inh: inactive

Results for COC(=O)c1nnn(CC(=O)Nc2cccc(Cl)c2)c1C(=O)OC ?
YjeE inh: inactive; PK Bst: >57

What do the screens show for `Cc1ccc(S(=O)(=O)O[C@H]2C[C@@H](C(C)(C)C)CC[C@@H]2c2ccccc2)cc1`?
YjeE inh: inactive

What do the screens show for `Cc1cc(C)n2nnnc2c1C#N`?
YjeE inh: inactive; PK Bst: >57

How did COc1ccc(NC(=O)N2CCC(c3nc(-c4cccs4)no3)CC2)cc1 do in these assays?
YjeE inh: inactive; PK Bst: >57
